Bioassay records from PubChem.
NS1 inh – blocks influenza NS1 protein function; actives 0.4% (n = 270,000); Potency, µM (titrated, usually from 46.1 µM), inactives show at the top dose activity, positive = more growth; AID 2326; S. cerevisiae slowed by influenza A NS1, growth recovery by OD600; note: actives are rising curves; nearly all actives have a fitted effect of over 50% in size
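Growth recovery, yeast-based: influenza A NS1 expressed in S. cerevisiae causes slow growth, and suppressors are detected by OD600. The parent strain without NS1 is used as positive control.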
SARS PLpro yeast – SARS-CoV PLP inhibition in yeast; S. cerevisiae expressing SARS-CoV PLpro, growth rescue; control for the full effect not named in the record; Potency, µM (titrated, usually from 32.9 µM), for the others: at the highest dose activity, positive = growth rescue; actives 0.19% (n = 330,000); note: 0% is about no effect; nearly all actives have a fitted effect of over 55% in size; growth read by luminescence after 48 h
RE007 growth inh – less growth of the S. pombe RE007 Vpr strain; S. pombe RE007 Vpr strain, BacTiter-Glo ATP luminescence, 24 h; control for the full effect not named in the record; Potency, µM (series often up to 92.2 µM), inactives show top-dose activity change, negative = less growth; actives 0.21% (n = 360,000); active = well fitted falling curve with a large enough effect; inconclusive = small, poorly fitted or top-dose-only effect; inactive = no such curve, though single readings can be large or run the other way;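 note: % is set by controls: 0 for no effect and ±100 for the full control effect; nearly all actives have a fitted effect of over 50% in size; the assay follows cell death caused by Vpr and the record does not say whether a fall means rescue or toxicity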
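Fission yeast strain RE007, carrying one chromosomally integrated HIV-1 vpr copy, was seeded at OD 0.01 in PMG+AL medium with 23 nL pinned compound. After 24 h at 30 °C and 99% humidity, viability was read by BacTiter-Glo luminescence.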
MARV entry inh – Marburg virus entry inhibition; Marburg virus pseudotyped entry inhibition, cell reporter; control for the full effect not named in the record; about a third of the inactives were read at about 46 µM; Potency, µM (doses to about 37.8 µM), inactives show top-dose activity change, negative = inhibition, actives largely listed as inhibitors; actives 1.8% (n = 300,000); active = well fitted inhibition curve with a large enough effect; inconclusive = small, poorly fitted or top-dose-only effect, or effect the other way; inactive = flat fitted curve, though single readings scatter; tested in HEK293 cells; about a fifth of its hits are not listed in these tables; note: % is set by controls: 0 for no effect and ±100 for the full control effect; luciferase read-out
Cruzain inh Det – inhibitors of Trypanosoma cruzi cruzain with detergent. actives 0.43% (n = 200,000). purified cruzain, Z-FR-AMC fluorescence, 0.01% Triton. Potency, µM, without a hit: max response, negative = inhibition, hits mostly inhibitors; active = well fitted curve in the direction sought with a large enough effect; inconclusive = small, poorly fitted or top-dose-only effect, or another doubt; inactive = no such curve, though single readings can be large; an effect the other way counts as inactive or inconclusive;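 note: plate controls were neutral wells for no effect and buffer without enzyme for full effect; nearly all actives have a fitted effect of over 40% in size; top concentration of the series not given in the record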
Target sequence (P25779 123-467 limits assumed): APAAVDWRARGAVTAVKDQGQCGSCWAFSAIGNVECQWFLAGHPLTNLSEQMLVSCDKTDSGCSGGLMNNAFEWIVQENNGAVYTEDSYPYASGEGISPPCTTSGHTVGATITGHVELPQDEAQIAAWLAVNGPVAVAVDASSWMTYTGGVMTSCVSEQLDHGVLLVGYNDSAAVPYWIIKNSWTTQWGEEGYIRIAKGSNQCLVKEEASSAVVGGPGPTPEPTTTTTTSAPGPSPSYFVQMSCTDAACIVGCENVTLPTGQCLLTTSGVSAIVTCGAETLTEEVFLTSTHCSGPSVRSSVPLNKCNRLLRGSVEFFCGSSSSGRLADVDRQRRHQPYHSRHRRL
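Cruzain (1.5 nM) preincubated 15 min at RT with compound in 100 mM sodium acetate pH 5.5, 5 mM DTT, 0.01% Triton X-100. Reaction started with 2 uM Z-FR-AMC; AMC fluorescence (ex 360/em 450 nm) change over 60 s gave rate.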
LASV entry inh – inhibitors of Lassa virus binding or cell entry | Lassa virus pseudotype entry inhibition, cell reporter; control for the full effect not named in the record | Potency, µM (highest dose often 37.9 µM), for the others: at the top dose activity change, negative = inhibition, usual class: inhibitors | actives 1.2% (n = 300,000) | AID 540256; active means well fitted inhibition curve with a large enough effect; inconclusive means small, poorly fitted or top-dose-only effect, or effect the other way; inactive means flat fitted curve, though single readings scatter; tested in HEK293 cells; note: % is set by controls: 0 for no effect and ±100 for the full control effect; nearly all actives have a fitted effect of over 50% in size; luciferase read-out
Cruzain inh noDet – blocks cruzain activity in detergent-free assay; actives 2.3% (n = 200,000); Potency, µM, for the others: max response, negative = inhibition, usual class: inhibitors; P25779; purified cruzain, Z-FR-AMC fluorescence, no detergent; active = well fitted curve in the direction sought with a large enough effect; inconclusive = small, poorly fitted or top-dose-only effect, or another doubt; inactive = no such curve, though single readings can be large; an effect the other way counts as inactive or inconclusive;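 note: plate controls were enzyme without inhibitor for no effect and buffer without enzyme for full effect; nearly all actives have a fitted effect of over 40% in size; top concentration of the series not given in the record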
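Detergent-free condition (0.00005% Triton X-100) in acetate buffer pH 5.5 with DTT. 1.5 nM enzyme and compound were pre-mixed 15 min, then 2 uM Z-FR-AMC substrate added; reaction progress from fluorescence change between first and third reads (60 s).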
StopGo reporter – lowers the luciferase signal of an FMDV 2A StopGo reporter; human cells with a luciferase reporter of 2A StopGo recoding; control for the full effect not named in the record; Potency, µM (series often up to 57.9 µM), without a hit: at the highest dose signal change, negative = less light; actives 1.2% (n = 410,000); active = well fitted falling curve with a large enough effect; inconclusive = small, poorly fitted or top-dose-only effect; inactive = no such curve, though single readings can be large or run the other way; tested in HEK293T cells; note: % is set by controls: 0 for no effect and ±100 for the full control effect; nearly all actives have a fitted effect of over 45% in size; luciferase light after 4 h
The depositor's hits bear a star; ? = inconclusive; . = not tested or not shown; [ ] = remark or other dose. Unless noted, calls come from the whole dose curve; as a rule, active means well fitted rising curve with a large enough effect; inconclusive means small, poorly fitted or top-dose-only effect; inactive means no such curve, though single readings can be large or run the other way. Potency is the fitted concentration of half-maximal effect. Not a hit list (roughly 4.6% active in at least one column).

SMILES | NS1 inh | SARS PLpro yeast | RE007 growth inh | MARV entry inh | Cruzain inh Det | LASV entry inh | Cruzain inh noDet | StopGo reporter
CC(C)=CCN1CCN(Cc2cccnc2)CC1CCO (stereo not drawn) | 3% | 1% | -8% | ? | . | -8% | . | 13%
Cc1cc(C)c2c(c1)-c1cc(C)nn1C(c1ccc3c(c1)OCO3)N2 (stereo not drawn) | -31% | -2% | ? | -4% | -11% | -13% | -3% | -15%
O=C(CSc1ccc2nnc(-c3ccncc3)n2n1)Nc1ccc2c(c1)OCO2 | -8% | 4% | 11% | . | -1.2% | . | -11% | -12%
Cc1cc(C)n2nc(C(=O)NC3CCCc4ccccc43)nc2n1 (stereo not drawn) | -2% | 0% | 25% | 0%[46.1 µM] | . | . | . | 2%
CCOc1cc(CC(=O)N[C@@H](CC(C)C)c2ccccc2N2CCCCC2)ccc1C(=O)O | . | -4% | -11%[18.4 µM] | . | -2.8% | . | 1% | -17%
COC(=O)c1cccc(C23CC4(C2)[C@H](CN(Cc2ccc(-c5ccccc5)cc2)[C@@H]4c2ccccc2)C3c2ccc(Cl)nc2)c1 (stereo partly drawn) | 12% | 0% | -1% | . | 2.4% | . | 7.9µM* | 16%
COc1ccc(CNC(=O)C(=O)NCC(c2cccs2)S(=O)(=O)c2ccc(F)cc2)cc1 (stereo not drawn) | . | . | . | . | -4.1% | -19%[46.1 µM] | -10% | 0%
CCOCCCn1c(=N)c(C(=O)NC2CCCC2)cc2c(=O)n3cccc(C)c3nc21 | . | . | . | 11%[46.1 µM] | -24% | ? | 3% | -15%
COc1ccc(-n2c(SCC(=O)NCCC(C)C)nc3ccsc3c2=O)cc1 | 0% | 6% | 9% | -1% | -2.8% | 11% | -9% | -1%
Cc1ccc(-c2ccc(SCC(=O)Nc3nonc3C)nn2)cc1 | -16% | -6% | -10% | ? | -2.8% | -1% | -2% | 15%
C/C(=N\NC(=O)CSc1nc(C)cc(C)n1)c1cccc([N+](=O)[O-])c1 | -5% | -2% | 5% | -21%[46.1 µM] | -2.6% | 9% | ? | 8%
CCn1c(CCNC(=O)c2ccc(OC)cc2)nnc1SCc1ccc(Cl)cc1Cl | -2% | ? | 1% | ? | -7.3% | -6% | ? | 0%
Cc1ccc(NCc2cccn2-c2nnc(N3CCC(C(=O)NCc4ccc(F)cc4)CC3)s2)cc1 | . | . | . | ? | -2.2% | . | -6% | -22%
O=C(Cc1ncc(C(F)(F)F)cc1Cl)NCCc1ccccc1 | . | 0% | 3% | -1% | . | 1% | . | -12%
CCOC(=O)C1CCCN(c2c(N3CCC(N4CCCCC4)CC3)c(=O)c2=O)C1 (stereo not drawn) | 10% | -3% | -3% | -3% | -1.6% | . | -6% | -19%
CCCCN=C1C([N+](=O)[O-])=CC=C2C1=NC1(CCCCC1)N2O | -8% | -16% | -9% | -19% | -4.7% | 2% | ? | -28%
CCOc1c(Cl)cc(CNCC(C)C)cc1Cl | . | . | 2% | -1% | . | 15% | . | -24%
CC(=O)c1ccc(NS(=O)(=O)c2ccc(-n3cccn3)cc2)cc1 | . | . | . | . | -7.9% | -8%[46.1 µM] | -12% | 69%[activator]
O=C(O)CC1=C(Nc2ccccc2)C(=O)N(c2ccccc2)C1c1ccc(Br)cc1 (stereo not drawn) | 16% | 0% | 23% | ? | . | -4% | . | 16%
CCc1cccc(C)c1NS(=O)(=O)c1ccc2c(c1)NC(=O)C(C)C(=O)N2 (stereo not drawn) | . | . | . | . | -0.7% | -6%[46.1 µM] | -5% | -12%
O=C(CNC(=O)Cc1ccc(Cl)cc1)NCc1ccco1 | 1% | 1% | -4% | 4%[46.1 µM] | . | 5% | . | 11%
CC1CC(=S)Nc2ccccc2S1 (stereo not drawn) | 9% | ? | -12% | 3% | -3.2% | -3% | -19% | 10%
CC(=O)Nc1cc(-n2cnnn2)ccc1C | -2% | 1% | 1% | 1%[46.1 µM] | . | -5% | . | -4%
CCS(=O)(=O)c1ccc2oc(SCC(=O)NC34CC5CC(CC(C5)C3)C4)nc2c1 | -2% | -2% | 10% | ? | -2.2% | -7% | 21% | ?
CCCC(=O)Nc1ccc(NC(=O)c2ccccn2)cn1 | -11% | 11% | -2% | -19% | 0.1% | ? | 5% | 23%
CN(C)S(=O)(=O)N1CCC(Oc2cccc(C(=O)NCCCC3CCCC3)c2)CC1 | 0% | -11% | -2% | . | . | . | . | ?
O=C(Nc1ccc(S(=O)(=O)N2CCCCC2c2cccnc2)cc1)c1ccc(F)cc1 (stereo not drawn) | . | . | . | . | -7.9% | ? | -1% | ?
Cc1ccc(NC(=O)Nc2ccc3c(c2)OCO3)nc1 | 6% | 0% | 49% | . | . | . | . | 46%[activator]
O=C1C=C(Nc2ccccc2C(=O)O)c2ccccc2C1=O | -40% | -11% | -26% | . | . | . | . | -26%
C/C(=N\NC(=O)c1ccc(N2CCCC2=O)cc1)c1ccccc1 | -7% | 0% | 8% | 18%[46.1 µM] | . | -19% | . | 21%

Among those listed so far, these have a nitro group on carbon.
SMILES | NS1 inh | SARS PLpro yeast | RE007 growth inh | MARV entry inh | Cruzain inh Det | LASV entry inh | Cruzain inh noDet | StopGo reporter
C/C(=N\NC(=O)CSc1nc(C)cc(C)n1)c1cccc([N+](=O)[O-])c1 | -5% | -2% | 5% | -21%[46.1 µM] | -2.6% | 9% | ? | 8%
CCCCN=C1C([N+](=O)[O-])=CC=C2C1=NC1(CCCCC1)N2O | -8% | -16% | -9% | -19% | -4.7% | 2% | ? | -28%

Continuation.
SMILES | NS1 inh | SARS PLpro yeast | RE007 growth inh | MARV entry inh | Cruzain inh Det | LASV entry inh | Cruzain inh noDet | StopGo reporter
COc1ccc(N(CC(=O)NCCc2ccccc2)C(=O)c2csnn2)cc1OC | 3% | 0% | 2% | ? | . | 0%[46.1 µM] | . | -7%
CCn1nnc2cc(C(=O)Nc3ccc(Br)cc3F)ccc21 | . | . | . | . | 4.7% | ? | -6% | 21%
Cc1nc2ncccn2c1-c1csc(NCc2ccco2)n1 | -4% | 3% | 1% | -24% | -4.6% | 2% | -14% | 35µM*
C/C=C(/C)C(=O)Nc1cccc(C2=NOC3(C2)C[C@@H](C(N)=O)N(C(=O)CC(c2ccccc2)c2ccccc2)C3)c1 (stereo partly drawn) | 0% | 2% | 0% | . | . | . | . | -4%
Cc1cccc(C(C)(C)C)c1OCCOCCN1CCCC1 | -9% | 2% | -1% | ? | -1.4% | ? | -7% | -8%
O=C(CCNc1ccccc1)c1ccc2c(c1)OCO2 | -81% | -14% | 32µM* | 22% | -5.4% | ? | 4% | 24%
Cc1ccc(NC(=S)NCc2ccc(F)cc2)c(C)c1 | -28% | 28% | 2% | ? | . | 15%[46.1 µM] | . | 23%
O=C(CSc1nc(-c2ccco2)cc(C(F)(F)F)n1)Nc1cccnc1 | -11% | -4% | 2% | ? | -7.7% | ? | -5% | 0%
CCOc1c2ccc(C(=O)NCCCCc3ccccc3)cc2nn1C | -58% | -1% | -7% | . | -2.5% | . | 7% | 0%
CCCn1c(SCC(=O)N(CC)CC)nnc1-c1ccncc1 | . | -5% | ? | 0%[46.1 µM] | . | 7%[46.1 µM] | . | 22%
OCC1(CCOc2ccccc2)CCN(Cc2cc(Cl)ccc2O)CC1 | -33% | 3% | -7% | 6% | . | -3% | . | -2%
CCSc1nc2ccccc2n1CC(=O)O | 8% | 0% | 2% | 2%[46.1 µM] | . | 17%[46.1 µM] | . | -10%
O=C(COC(=O)C1CC1)NCc1ccccc1Cl | 3% | ? | 11% | 20%[46.1 µM] | 0.1% | 9% | 0% | 46%[activator]
O=S(=O)(c1ccc(Cl)c(Cl)c1)N1CCc2nc3ccccc3n2CC1 | 5% | 1% | 11% | ? | -6.5% | 8% | 10µM* | -24%
CN1CCC(=NNC(=O)COc2ccc(Cl)cc2)CC1 | -1% | 2% | 1% | 11%[46.1 µM] | . | -26%[46.1 µM] | . | 4%
O=C(NN1C(=O)NC2(CCCCC2)C1=O)c1cccs1 | . | -2% | 10% | 11% | . | 15% | . | 8%
Fc1ccc(-c2cn3cc(C(F)(F)F)cc(Cl)c3n2)cc1 | 8% | 7% | ? | ? | -0.5% | ? | -13% | -11%
Cc1ccc(S(=O)(=O)NC(CC(=O)N2CCc3ccccc32)c2ccco2)cc1 (stereo not drawn) | -56% | -10% | -13% | -12%[46.1 µM] | -0.7% | 9% | -2% | 22%
Cc1ccc(N2CCN(S(=O)(=O)c3cccs3)CC2C)cc1 (stereo not drawn) | -47% | -5% | 1% | -20%[46.1 µM] | . | ? | . | -22%
CCOCCOC(=O)C1=C(C)NC(=O)NC1c1ccc2c(c1)OCO2 (stereo not drawn) | 3% | ? | 10% | . | . | . | . | -17%
C=CCOC(=O)C1=C(C)Nc2[nH]c(=O)[nH]c(=O)c2C1c1cccc(OC)c1 (stereo not drawn) | 4% | 17% | . | . | -2.8% | . | -8% | .
Cc1nc2cc(-c3ccccc3)sc2c(=O)n1N | . | -10% | ? | ? | . | ? | . | 7.1µM*
COc1ccc(C(C)=O)cc1COC(=O)c1cccnc1Cl | -18% | 1% | 0% | 18%[46.1 µM] | . | 2% | . | -8%
O=C1c2ccccc2C(=O)N1CCCc1nc(-c2ccccc2)no1 | -20% | 5% | -14% | 3% | 1.9% | -14% | 1% | 4%
CCOc1ccc(NS(=O)(=O)c2ccc3[nH]c(=O)[nH]c3c2)cc1 | ? | 15% | -19% | 5%[46.1 µM] | . | ? | . | -16%
CC1(C)SC[C@H](C(=O)Nc2cccc(Cl)c2)N1C=O | 2% | -1% | 13% | 3% | . | -2% | . | -13%
O=C1NCCN1Cc1ccc(F)cc1 | 0% | -13% | -3% | -1% | 2.6% | -4% | 11% | 7%
COCCCn1c(=O)c2sccc2n2c(CCCC(=O)NCc3ccc(OC)cc3)nnc12 | 5% | 3% | 6% | 11%[46.1 µM] | . | 1%[46.1 µM] | . | 36%[activator]
COCCCNc1oc(/C=C/c2ccccc2)nc1C#N | -7% | -6% | -12% | ? | . | ? | . | 2%
